Screening results deposited in PubChem BioAssay by National Center for Advancing Translational Sciences (NCATS).
TRPV1 PAM: enhances activation of the human vanilloid receptor TRPV1; actives 0.02% (n = 320,000); potentiation, % at 8.33 µM; AID 540277; TRPV1-expressing cells, Fluo-8 calcium influx, capsaicin EC20 potentiation; host cell line not named in the record; control for the full effect not named in the record; Q8NER1; active means potentiation above 80%; inconclusive means 30% to 80%; inactive means below 30%; note: 0% is about no effect
Target sequence (Q8NER1 whole entry, looked up): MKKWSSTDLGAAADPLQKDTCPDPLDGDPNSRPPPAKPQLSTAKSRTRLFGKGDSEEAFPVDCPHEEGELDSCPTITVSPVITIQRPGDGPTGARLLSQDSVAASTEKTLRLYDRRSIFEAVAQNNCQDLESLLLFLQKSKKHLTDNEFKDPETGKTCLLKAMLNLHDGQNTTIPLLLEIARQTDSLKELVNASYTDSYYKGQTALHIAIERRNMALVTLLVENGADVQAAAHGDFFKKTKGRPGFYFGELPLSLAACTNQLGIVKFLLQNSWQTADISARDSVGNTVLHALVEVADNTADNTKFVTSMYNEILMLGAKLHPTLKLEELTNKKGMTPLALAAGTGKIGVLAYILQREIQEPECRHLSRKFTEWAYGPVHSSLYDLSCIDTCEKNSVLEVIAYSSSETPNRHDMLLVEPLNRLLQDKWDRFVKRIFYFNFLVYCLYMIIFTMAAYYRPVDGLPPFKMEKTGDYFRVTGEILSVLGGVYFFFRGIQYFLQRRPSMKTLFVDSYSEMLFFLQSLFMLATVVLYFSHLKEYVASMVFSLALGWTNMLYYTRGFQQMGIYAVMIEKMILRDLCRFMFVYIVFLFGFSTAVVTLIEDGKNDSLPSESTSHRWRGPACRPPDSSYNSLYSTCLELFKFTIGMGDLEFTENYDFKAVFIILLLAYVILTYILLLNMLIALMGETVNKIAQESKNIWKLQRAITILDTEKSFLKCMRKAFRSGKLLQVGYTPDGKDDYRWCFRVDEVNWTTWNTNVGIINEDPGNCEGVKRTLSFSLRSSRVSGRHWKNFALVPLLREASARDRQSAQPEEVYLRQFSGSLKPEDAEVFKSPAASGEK
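Fluo-8 calcium influx in TRPV1-expressing cells, kinetic read (ex 480/em 520 nm). Compound added and read 3 min for agonist activity, followed by capsaicin at EC20 final and 2 min further read for enhancement.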
Six1-Eya2 inh: Six1/Eya2 interaction inhibition; AlphaScreen GST-Six1/His-Eya2 binding, biochemical; active compounds read low; control for the full effect not named in the record; Q15475+O00167; activity change, % (test concentration not listed); actives 0.56% (n = 360,000); in the data active = activity change below about -65%; inconclusive = about -30% to -65%; inactive = above about -30%; note: % is set by controls: 0 for no effect and ±100 for the full control effect
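AlphaScreen with GST-Six1 and His-Eya2 (5X mix: 250 nM and 500 nM), glutathione donor and nickel acceptor beads; buffer 50 mM Tris pH 8.0, 300 mM NaCl, 1 mM TCEP; 1 h at 37 C in the dark.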
D2 potentiator: positive allosteric modulators of human D2 dopamine receptor; P14416; actives 0.23% (n = 360,000); DiscoveRx D2 beta-arrestin cells, luminescence, 90 min; 100% = 57 uM dopamine signal; potentiation, % (test concentration not listed); AID 624464; active = potentiation of 50% or more; inconclusive = 30% to 50%; inactive = 30% or less;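 note: compound concentration not given in the record; tested on top of an EC20 dose of dopamine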
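PathHunter D2 cells, attached overnight at 37 deg C, received compound in DMSO plus dopamine at EC20 (50 nM final) for 90 min at 37 deg C. Beta-arrestin recruitment was read as luminescence after 1 h with detection reagent at ambient temperature.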
TRPML1 ag: activates the human TRPML1 channel; TRPML1-expressing cells, Ca2+ dye fluorescence, FDSS; host cell line not named in the record; reference of the full effect not given here; actives 0.12% (n = 410,000); Q9GZU1; AID 624414; activation, % (no concentration beside the values); in the data active = activation above about 50%; inconclusive = about 30% to 50%; inactive = below about 30%; note: 0% is about no effect; the text of the record puts the active cut at 80%
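Agonist activity was taken from a 110 s kinetic Ca2+ dye read on the FDSS after pinning compounds onto TRPML1-DL cells. The cells were seeded at 1,500/well with Tet inducer, incubated about 16 h, then dye-loaded at room temperature.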
TRPML1 inh: human mucolipin-1 channel inhibition | Q9GZU1 | TRPML1-inducible cells, Ca2+ dye fluorescence, FDSS; active compounds read low; inhibition of EC80 agonist-evoked calcium signal | activity change, negative = inhibition, % (test concentration not listed) | actives 0.02% (n = 390,000) | AID 624415; in the data active means activity change below about -50%; inconclusive means about -30% to -50%; inactive means above about -30%;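 note: stimulus is agonist 54-4 at its EC80 concentration; % is set by controls: 0 for no effect and ±100 for the full control effect; compound concentration not given in the record; the text of the record puts the active cut at -80%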
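TRPML1-DL cells, Tet-induced overnight (~16 h, 37 °C) at 1,500 cells/well, were loaded with Ca8 no-wash dye plus quencher for 45-90 min at room temperature. Compounds were pinned during FDSS kinetic reading; agonist 54-4 at EC80 (4 uM final) then added.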
CtBP-E1A inh: inhibitors of CtBP/E1A interaction; activity change, % (test concentration not listed); actives 0.49% (n = 340,000); AlphaScreen GST-E1A/His-CtBP binding, 1536-well; active compounds read low; control for the full effect not named in the record; in the data active means activity change below about -65%; inconclusive means about -30% to -65%; inactive means above about -30%; note: % is set by controls: 0 for no effect and ±100 for the full control effect
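In 5 uL wells, 23 nL compound meets equimolar GST-E1A and His-CtBP (5X stock 125 nM each) for 2 h, 37 °C. Beads (5X, 50 ug/mL) then 1 h, 37 °C, dark.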
The depositor's hits bear a star; ? = inconclusive; nt = not tested or not shown; & = joins results of further samples.

SMILES	TRPV1 PAM	Six1-Eya2 inh	D2 potentiator	TRPML1 ag	TRPML1 inh	CtBP-E1A inh
O=C(O)c1ccc(C2CCCCC2)cn1	3.3	-90.0*	?	-0.2	-12.5	-84.6*
COC(=O)c1c(-c2cccc(C)c2)csc1NC(=O)C1CCCO1 (centres undefined)	8.1	-5.9	7.7	2.6	14.9	4.4
Cc1ccccc1CCNC(=O)Cn1ccc2cc(S(=O)(=O)N3CCCC3)ccc21	0.5	-1.3	-11.7	0.7	11.9	7.3
O=C(Nc1ccc2oc(=O)ccc2c1)c1ccco1	-6.4	-8.5	-0.9	0.3	-4.6	-16.0
Cc1cccc(NCc2cc(Cl)ccc2O)n1	26.2	-0.8	-25.6	2.1	48.5	2.8
CCc1cc2c(C)cc(=O)oc2cc1OC(=O)C1CCCN1C(=O)OC(C)(C)C (centres undefined)	-12.0	-3.9	-9.2	0.2	4.3	-4.2
Cc1ccc(O)c(CNCCNCc2cc(C)ccc2O)c1	3.8	?	-26.7	-0.7	-1.4	?
O=C1C2CCCCC2C(=O)N1c1cccc(OS(=O)(=O)c2ccccc2)c1 (centres undefined)	-5.6	1.4	8.8	0.3	0.6	3.2
CN(C)C(CNC(=O)C1CC(=O)N(Cc2ccccc2)C1)c1ccccc1 (centres undefined)	1.7	2.9	4.0	-0.1	0.2	0.8
CCNC(=O)CC1SC(=Nc2ccc(C)c([N+](=O)[O-])c2)N(C)C1=O (centres undefined)	nt	1.9	-16.5	-0.1	-8.3	nt
O=C(c1ccc(Br)o1)N1CCN(c2ccc(F)cc2)CC1	-11.2	0.0	6.6	-0.9	5.5	-0.8
Cc1ccc(CNC(=O)CNS(=O)(=O)c2ccc(Br)s2)cc1	11.0	1.0	-3.8	-0.3	-3.1	-3.9
Cc1cc2n(n1)C(c1ccc3c(c1)OCO3)Nc1c(C)cccc1-2 (centres undefined)	28.7	8.0	-5.4	0.5	23.5	-2.4
COc1cccc(C2=NOC(C(=O)NCc3cccnc3)C2)c1 (centres undefined)	-3.4	-3.7	0.6	0.2	-12.1	7.5
Cc1ccc(-c2nc(CSCC(=O)NCCN3CCN(Cc4ccccc4)CC3)c(C)o2)cc1	-0.9	-11.0	14.7	1.7	10.6	-8.5
Nc1c(-c2ccccc2)cnn1-c1cccc(C(F)(F)F)c1	?	-1.0	-17.0	0.4	27.1	1.5
Nc1nnc(SCC(=O)c2ccc3ccccc3c2)s1	0.9	-0.6	1.6	-0.1	-0.9	-0.5
O=C(c1ccc(NC(=O)C2(c3ccccc3)CCOCC2)cc1)N1CCOCC1	11.0	3.7	-2.4	3.1	3.2	-0.8
COc1ccccc1CNC(=O)COc1ccc2c(c1)CCC2	-17.1	-0.3	-10.1	0.5	-3.2	nt
O=C(c1ccccc1)c1nnc(-c2ccccc2F)o1	-20.1	4.3	-3.4	0.6	0.8	-7.4
NCCCC[C@H]1CNC(=S)N1CC1(c2ccccc2)CC1	-8.0	1.6	2.4	-0.5	-18.0	5.1
CCCS(=O)(=O)N1CCC(C(=O)NCCN(C)Cc2ccccc2)CC1	-6.1	4.9	10.8	-0.2	5.6	-1.5
CCc1nnc2c3cnn(-c4ccccc4)c3ncn12	?	3.9	2.0	-0.5	26.4	0.1
CCN(CC)c1ccc(/C=C2\CCC(/C=N/NC(=O)c3ccc(=O)n(C)c3)=C2N2CCOCC2)cc1	5.8	-0.1	7.0	?	12.3	-2.1
COc1ccc(C(C)NCCC(c2ccc(OC(C)C)cc2)c2ccccc2OC)cc1 (centres undefined)	1.3	1.1	-8.0	-0.8	-0.2	-9.1

The list goes on; the last two above are carried over.
SMILES	TRPV1 PAM	Six1-Eya2 inh	D2 potentiator	TRPML1 ag	TRPML1 inh	CtBP-E1A inh
CCN(CC)c1ccc(/C=C2\CCC(/C=N/NC(=O)c3ccc(=O)n(C)c3)=C2N2CCOCC2)cc1	5.8	-0.1	7.0	?	12.3	-2.1
COc1ccc(C(C)NCCC(c2ccc(OC(C)C)cc2)c2ccccc2OC)cc1 (centres undefined)	1.3	1.1	-8.0	-0.8	-0.2	-9.1
Cc1cccc(OCCCN2CCOCC2)c1	16.3	13.0	-10.8	0.4	4.0	10.5
COc1ccc(-n2c(Cn3c(=O)sc4ccccc43)nnc2SCC(=O)N2CCOCC2)cc1	5.7	1.1	-5.6	0.8	22.7	-7.5
CCOC(=O)Cn1c(-c2ccc(OC)cc2)c(-c2ccc(OC)cc2)nnc1=O	8.1	-1.6	-1.1	0.2	-1.2	-3.3
CC(NC(=O)COc1ccc(Br)cc1)C(=O)O (centres undefined)	-12.5	1.3	-3.4	-0.5	-9.4	-9.2
COc1ccc(/C=C/c2nc3ccccc3c(=O)o2)cc1	-7.2	2.0	0.4	2.6	-15.8	-5.5
O=C1CCCCCC1C1(O)C(=O)Nc2ccccc21 (centres undefined)	0.4	7.5	-4.1	0.5	?	9.0
Cc1cc(NC(=O)COC(=O)C2=NN(c3ccccc3)C(=O)CC2)c([N+](=O)[O-])cc1C	nt	-9.1	0.5	-1.2	-5.3	nt
CCSc1ccc(-c2ccc(C)cc2)nn1	-11.3	10.8	-0.4	3.3	-18.1	11.0
CCOc1ccc(NC(=O)COc2ccc(C(=O)NC(C)c3ccc(S(N)(=O)=O)cc3)cc2OC)cc1 (centres undefined)	-25.3	-2.9	27.9	0.9	1.7	-3.5
COc1ccccc1NC(=O)CN1CCSc2ccccc21	-5.3	-14.1	-3.2	-1.6	-6.9	0.0
Cc1cc(NC(=O)c2ccc(Cl)cc2)n(CCOC(=O)c2ccc(Cl)cc2)n1	3.2	-7.1	6.5	0.7	-14.6	-10.7
Fc1cccc(Nc2nc(-c3ccncc3)nc3ccccc23)c1	-0.1	-15.9	5.5	-0.4	-2.5	-8.7
Cc1ccc(CS(=O)(=O)c2ncc(Cl)c(C(=O)Nc3ccc(OC(F)F)cc3)n2)cc1	9.1	-11.3	-11.7	0.8	-8.7	5.9
CC(C)(C)OC(=O)NCCCCCC(=O)N/N=C/c1coc2ccccc2c1=O	2.2	-0.3	-14.2	-0.7	5.4	nt
CCOC(=O)N1CCC(NC(=O)c2cc(COc3ccccc3SC)on2)CC1	-13.7	0.3	-11.1	2.5	-15.0	0.0
CC1COc2ccccc2N1C(=O)c1cccnc1Cl (centres undefined)	-16.1	8.2	2.4	0.2	5.5	7.9
CCN(C(=O)COC(=O)C1=COCCO1)c1ccccc1	-6.9	-8.0	-2.3	-0.3	-9.4	nt
COC(=O)C1C(c2ccc(Cl)cc2)NC(c2ccc(Cl)cc2)C(C(=O)OC)S1(=O)=O (centres undefined)	6.8	-0.9	-4.3	1.6	-8.1	6.9
COC(=O)c1c(NC(=O)CCCC(=O)O)sc(C)c1C	-5.0	14.3	-13.1	-0.7	-13.3	0.7
CCCCc1c(C)c2ccc(OC)c(/C(C)=N\O)c2oc1=O	5.7	-1.5	-8.5	2.2	-10.0	-18.0
CN(CC(=O)Nc1ccc(OC(F)(F)F)cc1)C(=O)/C=C/c1ccco1	nt	-10.4	-12.2	-0.2	-8.3	nt
OCCC1CN(Cc2cnc(-c3ccc(Cl)cc3)nc2)CCN1C1CCCCC1 (centres undefined)	-2.6	-3.8	-11.9	1.0	44.2	2.7
Cc1ccc(N2CC(C(=O)OCC(=O)Nc3cccc(Cl)c3C)CC2=O)cc1 (centres undefined)	7.6	-0.3	-12.6	-0.7	1.9	4.3
CC1CCC(NC(=O)c2ccc(N3CCCC3=O)cc2)CC1 (centres undefined)	1.5	-1.1	-1.2	-0.1	28.6	-0.6
CC1CCCCN1CCNC(=O)C1CC(=O)N(c2ccc(F)c(Cl)c2)C1 (centres undefined)	-11.1	3.2	-2.0	-0.3	6.6	7.3

Retrieved one by one from the entries so far (2):
SMILES	TRPV1 PAM	Six1-Eya2 inh	D2 potentiator	TRPML1 ag	TRPML1 inh	CtBP-E1A inh
COC(=O)C1C(c2ccc(Cl)cc2)NC(c2ccc(Cl)cc2)C(C(=O)OC)S1(=O)=O (centres undefined)	6.8	-0.9	-4.3	1.6	-8.1	6.9
COc1ccccc1NC(=O)CN1CCSc2ccccc21	-5.3	-14.1	-3.2	-1.6	-6.9	0.0

More compounds.
SMILES	TRPV1 PAM	Six1-Eya2 inh	D2 potentiator	TRPML1 ag	TRPML1 inh	CtBP-E1A inh
COc1ccc(-c2cn(-c3ccc(C)cc3C)c(=O)[nH]2)cc1OC	6.0	-1.4	-3.2	0.3	5.1	-7.1
CCc1ccccc1NC(=O)COc1ccc2c(c1)OCO2	-17.4	-8.5	-0.2	-0.6	16.8	-1.1
COC(=O)c1ccc2c(=O)n(CCN3CCOCC3)c(SCC(=O)Nc3ccc(C)cc3)nc2c1	7.1	-0.8	-8.6	-1.4	28.6	2.7
CC(=O)c1ccc(NC(=O)Nc2ncn(Cc3cccc(C)c3)n2)cc1	-6.4	-0.9	-1.9	-0.3	-7.2	3.6
Cc1cccc(NC(=O)CNC(=O)CN2CCN(C)CC2)c1C	2.2	9.2	-9.2	0.8	-15.8	-0.8
CCOc1ccc(-c2nnc(-c3cccnc3)o2)cc1OCC	7.9	-2.9	4.4	-0.3	-6.0	-4.3
COCCNC(=O)Nc1ccc2nc(-c3ccco3)c(-c3ccco3)nc2c1	2.2	?	14.6	4.3	-15.6	-11.0
CCOC(=O)c1c(-c2ccc(C)s2)csc1NC(=O)c1cccs1	-3.8	2.5	2.9	-1.0	-4.6	4.6
COc1ccc(-c2nnc(NC(=O)c3cc(C)on3)s2)cc1	2.0	3.2	-2.1	-0.2	8.6	0.1
Cc1ccc(NC(=O)CN(C)C(=O)Cc2coc3cc(C)c(C)cc23)cc1	nt	5.0	-5.7	3.5	-6.3	-9.7
CC(C)=CCN1CCN(Cc2cccc3c2OCO3)CC1CCO (centres undefined)	23.6	8.9	-11.8	-1.1	36.0	-9.0
COc1ccc(C(C)(O)c2nc(-c3ccoc3)cs2)cc1 (centres undefined)	nt	-1.5	-2.8	-0.4	nt	7.5
CCc1ccc(NC(=O)CNC(=O)[C@@H]2Cc3ccccc3CN2)cc1	22.8	2.5	-6.3	-0.6	0.7	2.6
Cc1ccc(CNC(=O)C2CCN(S(=O)(=O)N3CCCCC3)CC2)cc1	9.8	3.1	-4.5	0.0&-0.4	3.3&-4.0	-3.3
CCC(C)(C)NC(=O)C(c1ccncc1)N(C(=O)Cn1nnc2ccccc21)c1cc2c(cc1C(C)=O)OCO2 (centres undefined)	3.0	-1.8	-1.1	-0.4	34.1	14.5
Cc1csc(SCC(=O)N2CCCC2)n1	-2.6	5.2	-19.3	0.0	-4.8	13.3
C/C(N)=C(/C#N)C(=O)COC(=O)c1cc2c(s1)CCCC2	-11.7	-3.7	-5.2	-1.2	7.3	5.0
O=C(C1COc2ccccc2O1)N1CCN(c2ccccn2)CC1 (centres undefined)	-13.5	-0.2	-5.5	-0.6	4.0	7.4
CN(C(=O)c1cccc(NC(=O)Cc2ccc([N+](=O)[O-])cc2)c1)C1CCCCC1	nt	-6.0	-7.8	0.6	9.0	-5.6

Among those listed so far, these contain a tert-butyl group:
SMILES	TRPV1 PAM	Six1-Eya2 inh	D2 potentiator	TRPML1 ag	TRPML1 inh	CtBP-E1A inh
CCc1cc2c(C)cc(=O)oc2cc1OC(=O)C1CCCN1C(=O)OC(C)(C)C (centres undefined)	-12.0	-3.9	-9.2	0.2	4.3	-4.2
CC(C)(C)OC(=O)NCCCCCC(=O)N/N=C/c1coc2ccccc2c1=O	2.2	-0.3	-14.2	-0.7	5.4	nt
